KCNQ2 enhance = KCNQ2 (rat) channel potentiation; O88943; actives 0.54% (n = 310,000); B-score at 10 µM; AID 2239; CHO-K1 KCNQ2, FluxOR thallium flux fluorescence; stronger effect = higher value;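 active means fluorescence ratio B-score at least 3 SD of library B-scores, with initial fluorescence B-score within 3 SD, cut at about 5.3 in these data; same plate scores as AID 2156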;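 further: B-score of peak minus minimum over baseline fluorescence ratio after K+ and Tl+ stimulus; positive B-score means potentiation of KCNQ2 with more thallium influx and brighter signal; only the inactives scoring about 0 or higher are listed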
Target sequence (O88943 whole entry, looked up): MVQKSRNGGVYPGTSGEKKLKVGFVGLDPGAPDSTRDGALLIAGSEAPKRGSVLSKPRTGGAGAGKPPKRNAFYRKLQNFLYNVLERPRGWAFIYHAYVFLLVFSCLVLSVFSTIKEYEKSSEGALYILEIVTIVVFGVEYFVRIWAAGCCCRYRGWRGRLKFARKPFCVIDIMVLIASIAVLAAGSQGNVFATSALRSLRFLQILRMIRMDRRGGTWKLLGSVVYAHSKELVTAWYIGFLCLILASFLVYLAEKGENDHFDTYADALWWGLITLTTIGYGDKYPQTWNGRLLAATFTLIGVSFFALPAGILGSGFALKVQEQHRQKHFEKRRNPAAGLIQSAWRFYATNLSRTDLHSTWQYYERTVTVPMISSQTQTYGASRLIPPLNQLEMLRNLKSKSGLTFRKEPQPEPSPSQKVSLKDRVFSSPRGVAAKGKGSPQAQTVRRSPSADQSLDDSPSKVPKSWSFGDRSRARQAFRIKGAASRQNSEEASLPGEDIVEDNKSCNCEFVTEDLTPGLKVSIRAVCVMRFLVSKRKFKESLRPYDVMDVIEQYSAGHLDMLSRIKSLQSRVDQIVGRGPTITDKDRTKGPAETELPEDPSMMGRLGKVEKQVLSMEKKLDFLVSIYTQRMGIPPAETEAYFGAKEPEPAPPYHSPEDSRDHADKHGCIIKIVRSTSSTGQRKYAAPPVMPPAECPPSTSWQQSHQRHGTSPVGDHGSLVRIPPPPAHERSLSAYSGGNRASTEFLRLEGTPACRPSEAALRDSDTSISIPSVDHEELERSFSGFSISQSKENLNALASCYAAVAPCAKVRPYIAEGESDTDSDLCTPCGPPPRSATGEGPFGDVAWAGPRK
KCNQ2 enhance baseline = also measured in KCNQ2 enhance; calls as there; B-score; compound at 10 µM; measured here: initial fluorescence intensity artifact check;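 brightness before thallium and not channel activity; 0 = typical well and far values either way flag optical interference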
Starred values were filed as active, the others as inactive. Not all compounds are listed; the hit share may differ from the screen's.

Start of the listing, in advance (5 entries):
SMILES | KCNQ2 enhance | KCNQ2 enhance baseline
COc1cc2[nH]c(=O)n3nc(-c4ccccc4)nc3c2cc1OC | 0.23 | -0.86
CSc1cc(-c2ccccc2)[nH]c(=O)c1C#N | 2.1 | -0.96
CCOc1c2ccc(C(=O)NCCc3cccs3)cc2nn1CC | 0.69 | 1.2
COc1ccc(Nc2nc(N)c(C(=O)c3ccc(OC)cc3)s2)cc1 | 0.01 | -0.02
CC(C(=O)Nc1cccc([N+](=O)[O-])c1)N1C(=O)NC2(CCCC2)C1=O (centres undefined) | 0.54 | -1.1

The listing, from the first entry:
SMILES | KCNQ2 enhance | KCNQ2 enhance baseline
COc1cc2[nH]c(=O)n3nc(-c4ccccc4)nc3c2cc1OC | 0.23 | -0.86
CSc1cc(-c2ccccc2)[nH]c(=O)c1C#N | 2.1 | -0.96
CCOc1c2ccc(C(=O)NCCc3cccs3)cc2nn1CC | 0.69 | 1.2
COc1ccc(Nc2nc(N)c(C(=O)c3ccc(OC)cc3)s2)cc1 | 0.01 | -0.02
CC(C(=O)Nc1cccc([N+](=O)[O-])c1)N1C(=O)NC2(CCCC2)C1=O (centres undefined) | 0.54 | -1.1
Cc1cccc(C(=O)OCC(=O)N2CCC(c3ccccc3)=N2)c1O | 0.08 | 0.03
COc1ccc2[nH]c(=O)c(CN(CCO)C(=O)c3cccs3)cc2c1 | 0.5 | 0.96
CC1(C)Cc2c(C#N)c(N)n(-c3ccccc3)c(=S)c2CO1 | 1.8 | -0.43
Cc1onc(-c2ccccc2Cl)c1C(=O)Nc1ccc(CN2CCCC2)cc1 | 0.34 | -0.05
FC(F)(F)c1ccc(NC2=NCCC2)cc1 | 1.9 | -1.3
COc1cc(NC2=CC(=O)CC(C)(C)C2)cc(OC)c1OC | 0.54 | -0.57
CCCN1CCC(=O)N([C@H](CSc2ccc(OC)cc2)CC(C)C)CC1 | 2.3 | -0.21
CC(=O)NC1C(=O)N=C(SCC(=O)NCc2ccccc2)NC1=O (centres undefined) | 1.2 | 0.7
O=C(Cn1ncc2c([nH]c3ccccc32)c1=O)N1CCc2ccccc2C1 | 0.45 | -1.1
O=C1CCC/C1=C\c1ccccc1 | 0.34 | 0.84
CCCC(=O)OCC(=O)Nc1ccccc1Sc1ccccc1 | 1 | 0
COc1ccc(S(=O)(=O)N2CCC(C(=O)N3CCOCC3)CC2)cc1OC | 0.49 | -0.25
O=C(c1ccccc1F)N1CCN(c2ccccc2F)CC1 | 0.01 | -0.2
CCOC(=O)c1ccccc1NC(=O)c1ccc(NS(C)(=O)=O)cc1 | 1.9 | 0.12
O=C(COC(=O)c1ccccc1NCCO)NCCc1ccccc1 | 1.1 | -0.43
CC(=O)N1CCN(c2ccc(NC(=O)c3cccc(OCc4ccccc4)c3)cc2)CC1 | 1.1 | -1.1
CCN1C(=O)c2cccc3c(S(=O)(=O)NCC4CCCO4)ccc1c23 (centres undefined) | 0.41 | 0.52
CCn1c(=N)n(CCOc2ccc(OC)cc2)c2ccccc21 | 0.38 | 0.94
Cc1ccc(C)c(Nc2nn3c(=O)c4ccc(C(=O)NCc5cccnc5)cc4nc3s2)c1 | 0.89 | -3.2
COC(=O)c1cccc(NC(=S)Nc2ccc(Cl)c(Cl)c2)c1 | 5.4* | 0.6*
CSc1cccc(NC(=O)CNC(=O)C2CCCCC2)c1 | 2.8 | -0.16
CCCNc1nc2nc3ccccn3c(=O)c2cc1C(=O)NCCN1CCOCC1 | 1.1 | 0.43
Cc1c(CC(=O)O)c(=O)oc2c(C)c(OCc3ccc(F)cc3F)ccc12 | 0.48 | 1.2
CC(C)Cc1ccc(CN2CCCC(NC(=O)c3cccc(-n4cnnc4)c3)C2)cc1 (centres undefined) | 0.27 | 0.03
CCOC(=O)COc1cc(Br)c(/C=N/Nc2ccccc2)cc1OC | 0.2 | 0.48
CCN1CCN(C(c2ccc(F)cc2)c2nnnn2Cc2cccs2)CC1 (centres undefined) | 0.93 | -0.43
Cc1ccnc(-n2c(C)cc(/C=N/NC(=O)COc3cccc4cccnc34)c2C)c1 | 0.72 | 0.61
O=C(CSc1nc2ccccc2c(=O)n1-c1ccccc1)NCc1ccco1 | 0.67 | -2.4
COCC(=O)NC1CC(C)(C)Cc2c1cnn2-c1ccc(F)cc1 (centres undefined) | 0.53 | -0.42
Cc1ccc(C)c(OCC(=O)Nn2c(C)nc3ccccc3c2=O)c1 | 2.3 | 0.34
CCC(C)C1C(C#N)=C(N)Oc2n[nH]c(C)c21 (centres undefined) | 2.5 | -2.9
Cc1ccc(NC(=O)NC2CC(=O)N(c3ccc4c(c3)OCCO4)C2)cc1F (centres undefined) | 0.82 | -0.55
CCOc1cc(/C=C2\C(=N)N3N=C(C)SC3=NC2=O)ccc1OCCOc1ccccc1 | 1.7 | 0.69
O=C(C1CCN(S(=O)(=O)c2ccccc2F)CC1)N1CCc2ccccc2C1 | 1.2 | 0.86
COc1cccc(COc2ccc3c(C)cc(=O)oc3c2)c1 | 0.58 | 0.48
O=C(NNC(=O)C12CC3CC(CC(C3)C1)C2)c1cccc([N+](=O)[O-])c1 | 0.18 | 1.7
O=C(Nc1cccnc1)c1ccccc1-c1ccccc1 | 0.32 | -2.2
Cc1noc(C)c1CSc1ncnc2sc(C)c(C)c12 | 1.1 | 1.6
O=C(c1ccc(-c2ccccc2)cc1)C1CCCN(C(=O)c2cncs2)C1 (centres undefined) | 0.31 | -0.13
CC(C)c1ccc(-c2nnc(SCC(=O)NC3CC3)n2C)cc1 | 0.1 | 0.61
CCN(C(=O)COC(=O)CCc1c[nH]c2ccccc12)c1c(N)n(Cc2ccccc2)c(=O)[nH]c1=O | 1.7 | -0.63
O=S(=O)(Nc1ccccc1)c1ccc(-c2csnn2)cc1 | 0.53 | -0.05
Cc1csc(NC(=O)CCCC(=O)O)c1-c1nc2ccccc2s1 | 1.9 | 1.4
CCc1c(O)nc(SCC(=O)Nc2nc3ccccc3s2)n(C2CCCCC2)c1=O | 1.4 | -2
Cc1ccc(S(=O)(=O)Nc2c(O)c3ccccc3oc2=O)cc1C | 1.3 | -0.06
CCOc1ccccc1C(=O)N[C@H](C(=O)Nc1cc(S(=O)(=O)N(C)C)ccc1OC)C(C)C | 0.3 | 0.22
CCOC(=O)N1CCN(C(=O)Nc2ccc3nc(C)sc3c2)CC1 | 0.02 | -0.11
CC(C)NC(=O)CCNS(=O)(=O)c1ccc(Br)cc1 | 1.8 | -0.97
Cc1ccc(NC(=O)COC(=O)CCCC2=NS(=O)(=O)c3ccccc3N2)cc1C | 0.97 | 0.57
CCOC(=O)CNC(=O)CSc1nc(-c2ccccc2)ns1 | 1.5 | -0.67
CCOC(=O)N1CCN(c2ccc(C(=O)CC)cc2F)CC1 | 0.43 | -2.7
CCN1CCc2c(OCC(=O)Nc3ccccc3)cccc2C1=O | 0.14 | -1
COc1cc(C(=O)NC2CCN(Cc3ccccc3)CC2)cc(Cl)c1OC(C)C | 0.3 | -0.3
Cc1ccc(NC(=O)CC2SC(=Nc3ccc(O)cc3)NC2=O)cc1 (centres undefined) | 1.7 | 0.06
Cc1nnc(SCC(=O)NCc2ccco2)[nH]c1=O | 0.02 | -1.5

Remaining list, next part:
SMILES | KCNQ2 enhance | KCNQ2 enhance baseline
O=C(N/N=C/c1ccc(F)cc1)c1ccncc1 | 1.7 | 0.18
CCOc1ccc(CNC(=O)Cn2nc(C)n3nc(-c4ccccc4)cc3c2=O)cc1 | 0.95 | -0.99
CCCc1nn(C)c2c(=O)[nH]c(-c3cc(S(=O)(=O)N4CCN(C)CC4)ccc3OCC)nc12 | 0.27 | -2
c1ccc(COc2ccc(OCCn3cncn3)cc2)cc1 | 0.91 | 0.82
Cc1ccc(C(=O)N2N=C(CC(C)C)CC2(O)C(F)(F)F)o1 (centres undefined) | 0.68 | -0.13
O=C(c1cc(Cl)nc2ccccc12)N1CCN(S(=O)(=O)c2cccc(F)c2)CC1 | 0.61 | 0.78
COc1ccc(Cl)cc1NC(=O)Nc1ccccc1SC | 0.21 | -0.53
Cc1ccc2[nH]cc(CCNC(=O)C3CCCCC3)c2c1 | 0.08 | 1.8
CCOC(=O)c1ccc(NC(=O)c2nc[nH]c2C(=O)N(CC)CC)cc1 | 0.11 | 2.2
COc1ccc(OCC(=O)NNC(=O)C(=O)Nc2cc(OC)ccc2OC)cc1 | 11* | -0.02*
O=C(CCN1C(=O)/C(=C/c2cccs2)SC1=S)Nc1ccc(C(=O)O)c(O)c1 | 1.5 | -0.11
COc1ccc2nc(C)cc(C(=O)O)c2c1 | 0.09 | -0.12
CC(C)C(=O)Nc1c(-c2ccccc2Cl)c(=O)c2ccccc2n1C | 0.29 | 0
COc1ccc2c(c1)c(C)cc[n+]2Cc1ccccc1 | 0.8 | -0.34
CCn1c(SCC(=O)Nc2cccc(C)n2)nc2c1c(=O)n(C)c(=O)n2C | 0.37 | -0.46
CCCc1ccc2oc(C(=O)N3CCCC3)c(C)c2c1 | 0.03 | 1.8
CC12CNCC(C)(CN(C3(O)C(=O)Nc4ccc(Br)cc43)C1)C2=O (centres undefined) | 0.27 | -0.18
CCOP(=O)(c1ccc(N(C)C)cc1)C(O)c1ccccc1OC (centres undefined) | 1.6 | -0.33
CSc1ccc(C2C(C(=O)c3ccco3)=C(O)C(=O)N2c2nnc(SC)s2)cc1 (centres undefined) | 0.45 | 3.2
COc1ccc(CNC(=O)CCn2c(=O)oc3ccccc32)cc1 | 0.4 | 0.29
O=C(Nc1cccc([N+](=O)[O-])c1)c1[nH]ncc1Cl | 1 | 0.88
O=C(O)CCCNS(=O)(=O)c1cccs1 | 0.15 | 0.09
COC(=O)c1sccc1NC(=O)CSc1ccccc1NS(=O)(=O)c1ccc(Cl)cc1 | 0.04 | 2.5
CCOc1ccc2[nH]c(=O)c(CN(Cc3nnnn3Cc3ccccc3)CC3CCCO3)cc2c1 (centres undefined) | 0.02 | -0.63
CC(=O)Nc1cccc(/C(C)=N/NC(=O)c2cc(-c3ccncc3)nc3ccccc23)c1 | 0.31 | -1.2
CC(C)Oc1ccc(C2C(C#N)=C(N)Oc3c2oc(CO)cc3=O)cc1 (centres undefined) | 0.05 | 0.56
CCOC(=O)N1CCN(S(=O)(=O)c2ccc(C(=O)Nc3sc4c(c3C#N)CCC4)cc2)CC1 | 1.4 | 1.3
CCc1nnc(NC(=O)CCC(=O)N2CCN(Cc3ccc(OC)c(F)c3)CC2)s1 | 0.11 | -0.11
COc1ccc(Cc2c(O)nc(SCC(C)C)[nH]c2=O)cc1 | 0.29 | -0.01
Cc1cc(Cl)c(S(=O)(=O)N2CCSCC2)cc1OCC(=O)NC1CCCCC1 | 32* | -0.01*

Given comma-delimited: entries from further up
smiles,KCNQ2 enhance,KCNQ2 enhance baseline
CCn1c(SCC(=O)Nc2cccc(C)n2)nc2c1c(=O)n(C)c(=O)n2C,0.37,-0.46
CCCc1ccc2oc(C(=O)N3CCCC3)c(C)c2c1,0.03,1.8
CC12CNCC(C)(CN(C3(O)C(=O)Nc4ccc(Br)cc43)C1)C2=O (centres undefined),0.27,-0.18
CCOP(=O)(c1ccc(N(C)C)cc1)C(O)c1ccccc1OC (centres undefined),1.6,-0.33
CSc1ccc(C2C(C(=O)c3ccco3)=C(O)C(=O)N2c2nnc(SC)s2)cc1 (centres undefined),0.45,3.2

New compounds follow:
SMILES | KCNQ2 enhance | KCNQ2 enhance baseline
CCCCn1c(N)c(N(Cc2ccccc2OC)C(=O)CCC(C)C)c(=O)[nH]c1=O | 1.8 | 0.47
CCC(=O)Nc1c(-c2cccs2)c(=O)c2ccccc2n1C | 0.71 | 2.2
O=C(NCC(c1ccc(F)cc1)N1CCOCC1)c1cccnc1Sc1ccccc1 (centres undefined) | 0.67 | 0.91
COc1ccccc1NC(=O)CSc1nnnn1-c1ccc2c(c1)OCO2 | 0.61 | 0.07
COc1ccc(C(=O)N(C)C2(C)CCS(=O)(=O)C2)cc1OC (centres undefined) | 0.06 | -0.01
CCc1ccc(OCCCC(=O)Nc2ccc(N3CCCCC3)cc2)cc1 | 0.53 | 0.7
COc1ccc2cc(C(=O)C3CCCN(C(=O)c4cc(=O)n(C)c(=O)n4C)C3)ccc2c1 (centres undefined) | 0.01 | -1.9
COC(=O)c1sc(-c2ccc(C(C)(C)C)cc2)cc1NC(=O)CSCC(=O)O | 1.3 | 0.16
COCCC(=O)N1CCC(Oc2ccc(C(=O)NCc3csc(C)n3)cc2)CC1 | 0.05 | -1.7
CCC1=NN2C(=N)/C(=C\c3cccn3-c3ccc(OC)cc3)C(=O)N=C2S1 | 0.79 | -0.42
CN(C(=O)/C=C/c1ccco1)c1ccccc1C(=O)O | 0.36 | -2.7
O=C(CCNC(=O)c1ccc(Cl)cc1)Nc1ccc(F)cc1F | 1.4 | -0.28
O=C(COC(=O)c1ccco1)Nc1ccccc1 | 0.03 | 0.29
COc1ccc(Nc2ccc(S(=O)(=O)N3CCCCC3)cc2[N+](=O)[O-])cc1OC | 0.08 | -0.52
O=C(NNC(=O)c1cccc(O)c1)Nc1ccc([N+](=O)[O-])cc1 | 0.1 | 1.6
O=C(NC1CCCCC1)NC12CC3CC(CC(C3)C1)C2 | 0.99 | -1.3
COc1ccc(NC(=O)c2c(C)nn(-c3ccccc3)c2Cl)cc1 | 1.8 | -0.87
COC(C[C@H]1O[C@@H]1[C@@H](O)[C@H](C)OCc1ccccc1)OC | 0.58 | 0.4
O=C1[C@H](O)[C@@H](O)C(=O)N1Cc1ccccc1 | 1.4 | 0.53
CCOC(=O)N1CCC(Nc2c(NCCCN(CC)CC)c(=O)c2=O)CC1 | 0.22 | -0.54
CCNC(=S)Nc1cc(OCC)c(NC(=O)c2ccco2)cc1OCC | 0.73 | -1.1
Cn1ccnc1SCc1nc2c(cnn2-c2ccccc2)c(=O)[nH]1 | 0.15 | -0.5
CSc1nc(-c2ccccc2)nn1C(=O)c1ccc(Cl)cc1 | 0.26 | -0.09
